# Screens: PubChem BioAssay, several laboratories
# eIF4H FP inh – inhibitors of RNA binding by human eIF4H. AID 2012. inhibition, % at 35 µM. eIF4H fluorescence polarization binding assay. Q15056. 0.94% of 290,000 active;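 active = 50% or more with normal probe brightness, or confirmed in later tests; inconclusive = above 50% with abnormal brightness, or retests that disagree; inactive = below 50% or failed in later tests; about a fifth of its hits are not listed in these tables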;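 also: calls also rest on retests at 20 µM and on dose response follow-up; 0% = protein and probe with vehicle and 100% = probe without protein; strong numbers were not always called active; many hits fall short of the cut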
# Env fusion inh – inhibitors of HIV Env-mediated cell fusion; HeLa-JRFL Env/CEM21 cell fusion, luciferase; inhibition, % at 12.3 µM; 1.1% of 360,000 active; AID 651610;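 active = mean replicate inhibition score of at least 50 and every replicate individually at or above 50; inconclusive = only one of the two criteria met; inactive = mean below 50 and not all replicates reaching 50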;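 also: 0% = plate neutral controls and 100% = maraviroc near 300 nM; one replicate is shown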
# UUG fidelity – modulators of start codon recognition fidelity in yeast. S. cerevisiae UUG-firefly luciferase reporter, luminescence/redox ratio. activity score, % at 18.7 µM. 0.13% of 350,000 active;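 active = replicate mean at a twofold rise or more, about +100% in these data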;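 also: firefly luciferase made from a UUG start codon reports start codon fidelity; reporter light over untreated wells divided by growth signal over untreated wells; some hits fall short of that in this replicate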
# PABP polyA inh – blocks human PABP binding to poly(A) RNA; P11940; fluorescence polarization; inhibition, % at 35 µM; 1% of 290,000 active; AID 2014;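 active = 50% or more with normal probe brightness, or confirmed in later tests; inconclusive = above 50% with abnormal brightness, or retests that disagree; inactive = below 50% or failed in later tests; about a fifth of its hits are not listed in these tables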;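 also: calls also rest on retests at 20 µM and on dose response follow-up; controls were probe without protein and protein plus probe with vehicle; some compounds called inactive have numbers as strong as hits; many hits fall short of the cut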
# Target sequence (P11940 whole entry, looked up): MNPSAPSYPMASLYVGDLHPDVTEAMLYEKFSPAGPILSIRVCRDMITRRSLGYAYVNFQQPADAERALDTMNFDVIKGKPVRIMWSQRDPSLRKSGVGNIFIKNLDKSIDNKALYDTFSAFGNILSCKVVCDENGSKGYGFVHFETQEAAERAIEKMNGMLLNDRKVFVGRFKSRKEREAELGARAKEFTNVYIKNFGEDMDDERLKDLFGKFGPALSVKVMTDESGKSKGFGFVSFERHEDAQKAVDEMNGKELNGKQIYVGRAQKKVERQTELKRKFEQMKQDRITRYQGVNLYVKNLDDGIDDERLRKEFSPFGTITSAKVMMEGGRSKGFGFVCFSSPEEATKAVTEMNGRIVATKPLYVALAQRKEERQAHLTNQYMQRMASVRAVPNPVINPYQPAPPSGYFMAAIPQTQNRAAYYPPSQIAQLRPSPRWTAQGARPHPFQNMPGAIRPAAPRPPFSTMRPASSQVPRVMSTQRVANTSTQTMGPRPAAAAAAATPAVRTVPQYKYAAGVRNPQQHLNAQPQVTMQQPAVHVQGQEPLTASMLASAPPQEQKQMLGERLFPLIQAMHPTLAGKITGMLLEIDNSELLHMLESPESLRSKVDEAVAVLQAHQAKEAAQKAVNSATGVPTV
# Rce1 inhib – yeast Ras-converting enzyme inhibition; Q03530; AID 2563; yeast membranes, quenched prenylated peptide cleavage fluorescence; 0.27% of 290,000 active; calls only;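 active = fall in fluorescence gain of 50% or more versus controls, with final raw signal at or below 3038400; inconclusive = same 50% fall but final raw signal above 3038400; inactive = fall in fluorescence gain under 50%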;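 also: plate controls were neutral control wells for no effect and wells lacking membranes for full effect; tested at 10 µM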
# MT1-MMP act inh – MT1-MMP (human) activation inhibition | AID 651647 | HT1080 RFP-PRO-GFP cells, GFP/RFP ratio fluorescence, overnight; percent of plate control window, DMSO zero | 0.061% of 360,000 active | P50281 | GFP/RFP ratio change, % at 20 µM;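 active = GFP/RFP ratio change of at least 30% with cell ATP level not reduced by more than half and red fluorescence within 50% of control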; also: strong numbers were not always called active
#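 Compound: 20 µM single dose, 1% DMSO / System: HT1080 RFP-PRO-GFP cells / Controls: DMSO and RFP-L50D-GFP cell wells / Read-out basis: GFP/RFP fluorescence ratio / Schedule: overnight compound exposure at 37 °C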
# CSC inhib – blocks cancer stem cells. cancer stem cell-like cells viability, luminescence. inhibition, % at 7.5 µM. 1.1% of 300,000 active. AID 2717;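 active = mean at 75% or more and at least half the replicates too; inconclusive = mean and replicates disagree; tested in HMLE shEcad cells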;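 also: 0% = median of negative and 100% = median of positive control wells; the first replicate is given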
# eIF4H FP inh retest – further read-out of eIF4H FP inh, marked with its call; inhibition, %; compound at 20 µM; confirmation average;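 mean of two retest wells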
# PABP polyA inh retest – recorded beside PABP polyA inh, whose call it bears; inhibition, %; compound at 20 µM; confirmation repeats;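 mean of two retest wells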
# MT1-MMP act inh RFP – recorded beside MT1-MMP act inh, whose call it bears; RFP signal change, %; measured here: RFP expression control read;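 0 = vehicle wells; hits needed this value within 50% of zero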
# * marks the source's active call; other numbers are inactive results; i = inactive; u = inconclusive; x = not tested or not shown; & = joins results of further samples.
SMILES,eIF4H FP inh,Env fusion inh,UUG fidelity,PABP polyA inh,Rce1 inhib,MT1-MMP act inh,MT1-MMP act inh RFP,CSC inhib,others
CCc1nc2c(OCc3ccc(Cl)cc3Cl)cccn2c1N(C)C(=O)CC(C)C,x,14,6,x,x,-9,-16,x,
CC1(C(=O)NS(=O)(=O)c2ccc(Br)cc2)CCN1C(=O)c1cccc(F)c1 (stereo unspecified),x,-9,0,x,x,-1,1,x,
COc1ccc(CCNC(=O)c2ccc(Cl)c(S(=O)(=O)N3CCCC3)c2)cc1,x,3,-11,x,x,-9,-31,x,
COc1ccc(/C=N/Nc2nonc2N)cc1OC,2,-94,-13,-6,i,-1,-1,1,
CC(=O)Nc1ccc(NC(=O)CCc2nc3sc4c(c3c(=O)[nH]2)CCCC4)cc1,x,-45,-7,x,i,0,3,x,
CCc1nnc(NC(=O)C2Cc3ccccc3CN2S(=O)(=O)c2c(C)c(C)cc(C)c2C)s1 (stereo unspecified),-9,x,-19,0,i,0,1,6,
CC1(C(=O)NS(=O)(=O)c2ccc3c(c2)CCO3)CCN1C(=O)C1(c2ccc(Cl)cc2)CCC1 (stereo unspecified),x,-4,-5,x,x,5,3,x,
CN(CCc1ccccn1)C(=O)Nc1ccc(Cl)cc1,4,-18,-3,0,i,-1,0,-5,
Cc1cccc(NC(=O)Nc2ccc(C)c(C)c2)n1,-11,-166,-17,-9,i,2,5,-8,
Cc1ccc(-c2csc3nc[nH]c(=O)c23)cc1,6,-24,-24,-9,i,9,4,5,
CCN(CC(=O)Nc1c(F)cccc1F)C(=O)c1ccc2c(c1)OCO2,x,x,-5,x,x,0,-5,-15,
CCn1nc(C(=O)Nc2cccc(S(=O)(=O)N3CCCC3)c2)c2ccccc2c1=O,x,0,-3,x,x,3,-3,x,
COC(c1ccccc1)c1nnc(CCC(=O)NC2CCCCC2)o1 (stereo unspecified),-6,-28,x,2,i,-1,0,3,
CC(=O)c1cccc(NC(=O)C(OC(=O)/C=C/c2ccc3c(c2)OCO3)c2ccccc2)c1 (stereo unspecified),0,-66,-12,-2,i,1,-5,16,
COc1cc(Nc2ncc3c(n2)CCN(C(=O)Nc2ccc(C(C)C)cc2)C3)cc(OC)c1OC,x,u,-4,x,x,-8,-9,x,
COc1ccc(Oc2ncnc3c2ncn3Cc2ccccc2)cc1,-3,x,-24,-15,i,1,-6,-7,
Cc1ccc(S(=O)(=O)N2CCC(C(=O)NCCc3ccc(S(N)(=O)=O)cc3)CC2)cc1,1,6,2,10,i,8,6,-13,
O=C(NCCN1CCCCC1)Nc1ccccc1F,0,-15,-1,-1,i,1,1,-4,
COc1ccc(OCCC(=O)OCC(=O)NCCc2ccccc2)cc1,-3,2,x,-7,i,1,3,-8,
COc1ccccc1NC(=O)c1ccc(NC(=O)c2ccco2)cc1,-4,9,x,4,i,-1,-1,-6,
CN(C)S(=O)(=O)n1cnc2ccccc21,-3,19,-1,2,i,-11,1,10,
COc1ccc(CN2C(=NC(=O)C3CCCO3)SC3CS(=O)(=O)CC32)cc1OC (stereo unspecified),x,-5,-6,x,i,-5,3,12,
O=C(CSc1nccn1Cc1ccccc1)NCc1ccccc1,-10,x,-28,8,i,-3,1,-5,
NC(=O)C1CCN(C(=O)/C(=C/c2ccco2)NC(=O)c2ccccc2)CC1,-2,-13,-15,9,i,0,2,x,
Cc1cc2nc(N3C(=O)CNC3=S)sc2cc1C,16,21,-9,-7,i,6,5,42,
FC(F)(F)C(F)(F)c1nc2nc(Cl)c(Cl)nc2[nH]1,x,10,-12,x,x,-4,0,x,
Cc1ccc(CNS(=O)(=O)c2ccc3c(c2)n(C)c(=O)c(=O)n3C)cc1,2,-1,-2,12,i,4,4,-14,
CCOC(=O)N1CCN(C(=O)C2CCN(S(=O)(=O)N3CCCC3)CC2)CC1,4,-33,x,-4,x,-3,2,-5,
C=CCNCCOCCSc1ccc(Cl)cc1,-6,27,-7,-3,i,10,12,52,
O=C(COc1ccc2ccccc2c1)N[C@@H](C(=O)O)c1ccc(O)cc1,0,-18,-20,6,i,5,10,10,
Cc1nc(NC(=O)CSc2nc3ccccc3s2)sc1C(=O)N(C)C,9,i,6,0,i,-2,1,-12,
CCCn1cnnc1CNC(=O)[C@H]1O[C@@H](n2cnc3c(N)ncnc32)[C@H](O)[C@@H]1O,x,-4,-19,x,x,2,4,x,
CCN1CCN(C(=O)CS(=O)Cc2nc(-c3ccc(OC)cc3)oc2C)CC1 (stereo unspecified),1,21,-12,8,i,1,7,-8,
C=CCOc1ccc(CNn2cn[nH]c2=S)cc1OC,-5,x,x,5,i,-1,1,8,
CCc1c(C)nc(N)nc1OCC(F)(F)C(F)F,-5,-16,-13,44,i,11,-3,1,
COc1ccc(S(=O)(=O)N(CCC(N)=O)Cc2ccco2)cc1OC,-8,-3,x,7,i,1,5,0,
CC(C)C(NS(=O)(=O)c1ccccc1)C(=O)OCC(=O)NNC(=O)c1ccccc1 (stereo unspecified),x,-2,-9,x,x,-2,5,x,
COc1ccc2c(c1)c(=O)oc1cc(OCC(=O)N3CCc4ccccc4C3)ccc12,87,-20,65,17,i,4,1,18,eIF4H FP inh retest=-1;PABP polyA inh retest=10
Cc1ccc2[nH]c3c(c2c1)CCCC3NC(=O)CCl (stereo unspecified),1,x,7,-1,i,-7,-1,39,
CCOC(=O)c1ccc(N2C(=O)CC(N3CCN(C/C=C/c4ccccc4)CC3)C2=O)cc1 (stereo unspecified),-12,x,10,-7,x,3,3,x,
O=C(NCc1cccs1)Nc1cccs1,-5,x,-12,8,i,2,3,-11,
Cc1cc(=O)oc2cc(Oc3ccc([N+](=O)[O-])cc3C(F)(F)F)ccc12,x,22,-8,x,i,1,-4,-5,
COc1ccc(C2=NOC(C)(c3nnc(-c4ccc(Cl)cc4)o3)C2)cc1 (stereo unspecified),x,-20,-16,x,i,1,0,-4,
COc1cc(/C=C/C(=O)NC(=O)c2ccccc2O)ccc1O,-2,-35,-14,10,i,-1,-2,-30,
Cc1noc(C)c1S(=O)(=O)Nc1ccc2c(c1)C(=O)N([C@H](C)CO)C[C@@H](C)[C@@H](CN(C)Cc1ccc3c(c1)OCO3)O2,x,-41,-13,x,x,4,10,x,
COCc1cc(C)n(CC(=O)OC)c(=O)c1C#N,-5,-32,x,-2,i,4,7,-7,
Cc1ccc(S(=O)(=O)NCC(=O)NCC(=O)NCCc2ccccc2F)cc1C,x,7,-8,x,x,-2,-3,x,
O=C(OCc1nnc(-c2ccc(Cl)cc2)o1)c1ccncc1,0,-60,-22,13,i,-1,4,-14,
CCOCCCNC(=O)C(NC(=O)c1ccc(NC(C)=O)cc1)c1ccc(Cl)cc1 (stereo unspecified),-8,x,x,-4,i,-5,6,-13,
CCN1CCN(C(=O)COCc2cc(-c3ccc4c(c3)OCO4)on2)CC1,x,-17,x,x,i,3,12,-9,
Cc1c(C=O)c2ccccc2n1CCOc1ccccc1F,-22,-4,-21,0,i,2,-29,-5,
Cc1cccc(OCCCCn2c(CO)nc3ccccc32)c1,-8,21,-18,-3,i,7,-9,0,
O=C(COC(=O)c1ccc(F)cc1F)Nc1ccc(S(=O)(=O)N2CCOCC2)cc1,x,3,-9,x,x,3,5,x,
C[C@@H]1CN([C@@H](C)CO)C(=O)CCCn2cc(nn2)CO[C@H]1CN(C)C(=O)c1cc(-c2ccccc2)on1,x,-68,-3&17,x,x,1,1,x,
Cc1cc(C)nc(NS(=O)(=O)c2ccc(NC(=O)C(C)C)cc2)n1,-3,12,-12,2,i,-1,-1,-4,
